Bioassay records (PubChem BioAssay)
NPR1 antag = Natriuretic polypeptide receptor (hNpr1) antagonism - Primary qHTS; Atrial natriuretic peptide receptor 1 (Homo sapiens), P16066; HEK293 hNpr1 GloSensor cGMP, ANP-stimulated luminescence; Potency, µM (top dose mostly 46.3 µM), for the others: at the highest dose activity change, negative = inhibition, usual class: inhibitors; 1.6% of 76,000 active; active = well fitted inhibition curve with a large enough effect; inconclusive = small, poorly fitted or top-dose-only effect; inactive = no such curve, though single readings can be large or run the other way;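 further: nearly all actives have a fitted effect of over 60% in size; nearly all hits also lower the signal before the agonist is added; a reference antagonist and vehicle were the controls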
Target sequence (P16066 whole entry, looked up): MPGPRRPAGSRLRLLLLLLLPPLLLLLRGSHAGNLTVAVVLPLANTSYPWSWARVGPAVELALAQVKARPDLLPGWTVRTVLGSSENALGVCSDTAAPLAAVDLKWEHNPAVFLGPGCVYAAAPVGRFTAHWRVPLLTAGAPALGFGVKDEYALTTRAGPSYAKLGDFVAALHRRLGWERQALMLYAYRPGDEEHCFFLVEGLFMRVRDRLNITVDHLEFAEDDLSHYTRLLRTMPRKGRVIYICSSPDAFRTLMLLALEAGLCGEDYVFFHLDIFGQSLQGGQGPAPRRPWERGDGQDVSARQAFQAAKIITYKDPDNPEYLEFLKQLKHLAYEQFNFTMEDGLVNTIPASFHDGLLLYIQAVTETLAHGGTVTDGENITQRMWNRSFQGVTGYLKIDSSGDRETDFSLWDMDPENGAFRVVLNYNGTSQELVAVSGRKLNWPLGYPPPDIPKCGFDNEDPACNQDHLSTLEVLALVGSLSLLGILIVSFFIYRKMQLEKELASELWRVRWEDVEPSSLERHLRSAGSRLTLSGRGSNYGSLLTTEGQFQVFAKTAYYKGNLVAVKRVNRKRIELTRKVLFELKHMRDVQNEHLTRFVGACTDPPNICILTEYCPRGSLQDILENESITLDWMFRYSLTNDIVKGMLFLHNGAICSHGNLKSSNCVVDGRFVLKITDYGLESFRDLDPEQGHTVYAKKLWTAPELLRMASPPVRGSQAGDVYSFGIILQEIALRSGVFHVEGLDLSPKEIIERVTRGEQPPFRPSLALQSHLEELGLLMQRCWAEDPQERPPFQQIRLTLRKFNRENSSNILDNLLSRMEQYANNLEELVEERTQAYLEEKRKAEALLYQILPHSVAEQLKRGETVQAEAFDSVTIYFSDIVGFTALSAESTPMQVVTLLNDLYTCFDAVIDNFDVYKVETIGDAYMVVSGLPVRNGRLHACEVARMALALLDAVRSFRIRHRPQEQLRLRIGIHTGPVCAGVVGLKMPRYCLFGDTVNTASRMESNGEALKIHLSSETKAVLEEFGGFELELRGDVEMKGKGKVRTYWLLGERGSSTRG
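HEK293 cells stably expressing human Npr1 and cGMP GloSensor pGS-40F, loaded 2 h with 2% GloSensor reagent, given compound 30 min at room temperature. Luminescence read before and 20 min after 0.1 nM hNppA.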
* hit, by the source's call; ? = inconclusive; & = joins results of further samples; [ ] = remark or other dose. On the % scale 0 is the no-effect control and ±100 the full control effect; potency means the concentration at half of the fitted maximal effect. This is a subset; the hit share may differ from the screen's.

structure,NPR1 antag
COc1cccc(C2CCCCN2Cc2nc(CCc3ccccc3)no2)c1 (stereo unspecified),7%
Cc1nc2c(c(-c3ccc(O)cc3)n1)CN(CC1CC1)CCC2,2%[70.6 µM]
N#Cc1cccc(CN[C@@H]2CO[C@H](CNC(=O)c3cccs3)[C@H]2O)c1,6%[70.6 µM]
COc1ccc(-c2[nH]ncc2CNC(=O)[C@H]2CCC[C@@H](O)C2)cc1,2%
CC1=C[C@@H](CNC(=O)c2cnccn2)[C@H](C(C)C)C[C@H]1Cc1nc2ccc(F)cc2[nH]1,?
Fc1ccccc1-c1nnc([C@H]2CCN(Cc3cccc(OC(F)(F)F)c3)C2)o1,-1%[70.6 µM]
CCOc1ccccc1CNC(=O)c1c(C)sc2ccn(CC(C)C)c(=O)c12,-1%
Cc1nc2c(c(-c3ccc(O)cc3)n1)CN(C(=O)Cc1ccccn1)CCC2,7%
CCCNC(=O)[C@H]1CCC[C@H]1NC(=O)c1ccncc1,2%
Cc1cnc(C(=O)NCC2CCCCC(=O)N2)cn1 (stereo unspecified),4%
COc1cccc(CN2Cc3cc(NC(=O)c4cc(OC)cc(OC)c4)ccc3OCC2=O)c1,-1%
Cc1cn2nc(C(=O)N3CCC(NC(=O)c4ccoc4)CC3)cc2c(=O)[nH]1,5%
CN(Cc1ccccc1)C(=O)[C@@H]1CN(S(C)(=O)=O)C[C@H]1c1ccncc1,0%
CC1=C[C@@H](CN2CCC(O)CC2)[C@H](C(C)C)C[C@H]1Cc1nnc(-c2ccccc2F)o1,-16%[70.6 µM]
CCc1nc(-c2c3n(c(=O)n(CC(=O)Nc4ccccc4OC)c2=O)CCCC3)no1,3%
CO[C@H]1C(=O)N(C2CCN(C(=O)c3cnc(C)cn3)CC2)[C@H]1c1ccncc1,0%
COc1cccc(CN2CC(C(=O)NCc3n[nH]c(=O)[nH]3)CCC2=O)c1 (stereo unspecified),-1%
CC(C)Oc1ccc(CNC(=O)c2noc(-c3ccccc3F)n2)cc1,-11%
O=C(O)COc1ccc(-c2nccc3c2C(=O)N(Cc2cccc(C(F)(F)F)c2)CC(CNC(=O)C2CCOCC2)O3)cc1 (stereo unspecified),?
COCc1nc2nc(-c3ccccc3)c(-c3ccc(OC)nc3)cc2n1C,-10%[70.6 µM]
COc1ccc(OC)c(NC(=O)Cn2c(-c3cccc(Cl)c3)nc(C)c(CCO)c2=O)c1,0%
Cc1cccc2ncc(C(=O)N3CC[C@H](CO)[C@@H](O)C3)c(=O)n12,4%
COc1ccc(C(C)NC(=O)Cn2c(C)cc3nc4n(c(=O)c32)CCCC4)cc1 (stereo unspecified),12%
O=C1CCCN1Cc1noc(-c2cccc(Cl)c2)n1,0%
CN(C)c1cc(N2CCCC(NC(=O)Cc3cccc(F)c3)C2)ncn1 (stereo unspecified),2%
CCN(CC)Cc1cnc2c(C(=O)NCCc3cccs3)cnn2c1,4%
CC(C)NC(=O)c1cc(Br)cn2ccnc12,0%&1%[70.6 µM]
COc1cccc(NC(=O)Cn2c(-c3ccc(F)cc3)nc(C)c(CCO)c2=O)c1,1%
CC1(c2noc(-c3ccccn3)n2)CCN(C(=O)C2CCN(C(=O)c3ccc(=O)[nH]c3)CC2)CC1,15%
O=S(=O)(c1ccc(C(F)(F)F)cc1)N1CCC(n2cnnc2C2CC2)CC1,-2%
Cc1ccc(N2C(=O)N[C@@H]3CCN(C(=O)CC4(CC(=O)O)CCCC4)[C@@H]3C2=O)cc1,-3%[70.6 µM]
O=C(C1CCC1)N1CC[C@H]2COC(=O)N2c2cc(F)ccc2C1,2%[70.6 µM]
Cc1ccc(NC(=O)N2CC(c3nnc(-c4ccncc4)o3)C3(CCOCC3)C2)cc1 (stereo unspecified),0%
CC1(CNC(=O)c2cccs2)CCOCC1,6%
O=C(c1ccc(Cl)s1)N1CCCC2(C1)Nc1cccnc1NC2=NC1CCCC1 (stereo unspecified),?
Cc1nn(C)c(C)c1S(=O)(=O)N1CCC2(CC1)CC(N(C)Cc1ccccc1)CCO2 (stereo unspecified),-5%
COc1ccccc1CNC1(Cc2cc(COc3ccccc3)on2)COC1,1%[70.6 µM]
COc1ccccc1[C@@H]1CN(C(=O)c2ccc3n[nH]nc3c2)C[C@H]1C(=O)O,2%
Cn1cccc1C(=O)N1CCC(C(=O)N2CCCCCCNC(=O)CC2)CC1,6%
O=C(CN1CCCCCC1)N1CCC(N2C(=O)C3(CCCC3)C2c2ccccc2)CC1 (stereo unspecified),-14%

2 of the compounds above, with each value named.
Cc1ccc(N2C(=O)N[C@@H]3CCN(C(=O)CC4(CC(=O)O)CCCC4)[C@@H]3C2=O)cc1
  NPR1 antag = -3%[70.6 µM]

O=C(C1CCC1)N1CC[C@H]2COC(=O)N2c2cc(F)ccc2C1
  NPR1 antag = 2%[70.6 µM]

Other compounds.
structure,NPR1 antag
CCCn1cc2c3c(cccc31)CN(C(=O)COc1ccccc1)CC2,-20%
O=C(CCCc1ccccc1)Nc1ccnn1C1CCN(C(=O)CCn2cncn2)CC1,-14%
O=C(NC1CCCN(c2cc(-c3ccccc3)[nH]n2)C1)c1c[nH]c2ccccc12 (stereo unspecified),-19%
COc1cc(Cl)ccc1C(=O)N1CC[C@@H]2CN(S(C)(=O)=O)[C@@H]2C1,-2%
COc1ccc(-c2cc(N3CCCC(NC(=O)c4cccc(Cl)c4)C3)n[nH]2)cc1 (stereo unspecified),-28%
CCc1ccccc1S(=O)(=O)Nc1cccn2nc(C(C)C)nc12,-15%
CCc1ccc(C(=O)N2CCN(c3cc(-c4ccc(F)cc4)[nH]n3)CC2)cc1,?
COCCCNC(=O)C1CCN(C(=O)N2CC3CC(C2)[C@H]2CCCC(=O)N2C3)CC1 (stereo partly specified),0%
Cc1cccc(N2CCN(CC(=O)N3CC[C@@](C)(O)[C@@H](O)C3)CC2)c1,15%
O=C(N[C@H]1CO[C@H]2[C@@H]1OC[C@@H]2Nc1nccc(-c2ccco2)n1)c1ccco1,-8%[70.6 µM]
COc1ccc(CC(=O)N2CC[C@@H](CC(=O)O)[C@@H](CCN3CCC(C(N)=O)CC3)C2)cc1,0%
CC1CCCCN1c1ccc(C(N)=O)cc1NC(=O)c1cccc(-n2cnnc2)c1 (stereo unspecified),5%
Cc1nn(-c2ccc(F)cc2)c(Oc2ccc(F)cc2F)c1CCC(=O)N1CCCC1,-2%
O=[S+]([O-])(c1cccc(C(F)(F)F)c1)N1CCc2nc(-c3ccc(Cl)cc3)nc(-c3ccccc3)c2C1,-6%
O=C(NCCc1nc(Cc2ccccc2)no1)c1ccc2nccn2c1,0%
Cc1oc(-c2cccs2)nc1CN1CCCC(c2ccn[nH]2)C1 (stereo unspecified),-3%
CC(NC(=O)c1sc2cccc(F)c2c1Cl)c1nncn1C (stereo unspecified),4%
Cc1nccn1C1(C(=O)O)CCN(Cc2ccc(-c3ccn[nH]3)o2)CC1,16%
O=C(Cn1cccc1-c1nc(-c2ccc3c(c2)OCO3)no1)NC1CCCCC1,2%
CCN1c2cc(C(=O)NCc3ccc(C)c(C)c3)ccc2C(=O)N2CCCCCC21 (stereo unspecified),0%
Cc1nn(Cc2ccccc2)c(C)c1[C@@H]1C=C[C@@H](NC(=O)Nc2cccc(C#N)c2)C1,-2%[70.6 µM]
Cc1cc(C(=O)N2CC(F)(F)C[C@H]2c2nc(C3CC3)no2)c(C)o1,6%
COc1ccc(-c2cc(N3CCCC(NC(=O)c4ccccc4Cl)C3)n[nH]2)cc1 (stereo unspecified),-4%
CC(C)CN1CC2(CCN(C(=O)Cc3c[nH]c(=O)n(C)c3=O)CC2)CC1=O,7%
Cc1cc2nc3n(c(=O)c2n1CC(=O)NCCc1ccc(Cl)cc1)CCCCC3,0%
CCc1ccccc1NC(=O)N1CCC2(CC1)C(=O)N(CC(=O)N(C)C)CN2c1ccccc1,4%
O=C1OC[C@@H]2CCN(Cc3ccc(F)c(F)c3)Cc3ccc(F)cc3N12,-3%[70.6 µM]
CN(Cc1ccccc1)C(=O)C[C@@H]1CCNC[C@@H]1Cc1cc(COc2ccccc2)on1,-20%[70.6 µM]
COc1ccc(CC(=O)N2CCCN(c3cc(-c4ccc(Br)cc4)[nH]n3)CC2)cc1OC,?
CS(=O)(=O)N1C[C@@H](Oc2ccccc2)C[C@H]1C(=O)N1CCCC1,-8%
O=C(Cc1ccccc1Cl)N1CCC(c2n[nH]c(=O)n2-c2ccccc2)CC1,3%
COc1cccc(CN2CCc3c(cc(C(=O)NCc4ccccn4)n3C)C2)c1,2%
O=C1CCC2(CNC(=O)c3ccncc3)CCCC=C2N1 (stereo unspecified),-1%
Cc1ccoc1C(=O)N1C[C@@H](CO)[C@H](c2ccccn2)C1,0%
CN(C)C(=O)c1nc(-c2cc(Cl)cc(Cl)c2)c2ccccn12,-15%[70.6 µM]
O=C(Cc1cccnc1)N1CCc2onc(-c3ccc(F)c(F)c3)c2C1,11%
CCCN(C)C(=O)Cc1ccc(N(Cc2ccccc2)C(=O)c2ccco2)cc1,-19%
O=C1c2c(nc(CNc3ccccc3Cl)n2Cc2ccccc2)NCCN1CC1CC1,-17%[70.6 µM]
CCOc1cccc(CNC(=O)[C@@]23CCCC[C@H]2N(C)C(=O)CC3)c1,-1%
O=C(O)[C@@H]1CN(S(=O)(=O)C2CC2)C[C@H]1c1ccccn1,-3%
COCC(=O)NC[C@@H]1C=C(C)[C@H](CC(=O)N2CCN(c3ccccn3)CC2)C[C@H]1C(C)C,4%
Cc1ccn(CCC(=O)N2CCCC2C(=O)Nc2cccc(-n3cccn3)c2)n1 (stereo unspecified),1%
CSCC[C@@H]1NC(=O)c2cc(NC(=O)c3ccc(-n4cnnn4)cc3)ccc2NC1=O,-3%
COC(=O)c1ccccc1NC(=O)O[C@@H]1CO[C@H]2[C@@H]1OC[C@@H]2Nc1nccc(-c2ccc3c(c2)OCO3)n1,-1%
Clc1ccc(-c2cnc3n[nH]c(-c4ccccc4)c3n2)cc1,-11%[70.6 µM]
CC1=C[C@@H](CNC(=O)CCCC(=O)O)[C@H](C(C)C)C[C@H]1Cc1nc2ccncc2[nH]1,-1%[70.6 µM]
CC(C)CN1C(=O)COC[C@@H]1[C@H](O)c1ccc(NC(=O)c2ccc(F)cc2)cc1,-17%[70.6 µM]
COc1cccc(C(=O)N2CCC(C3CCN(S(C)(=O)=O)CC3)C2)c1 (stereo unspecified),6%
COc1ccc(C(=O)N2CCC3(CC2)N=C(c2ccc(Br)cc2)NO3)cc1OC,10µM*
Cc1nonc1OCCNC1CCC2(CCNCC2)CC1,-3%

Two neighbouring records already listed, quoted:
structure,NPR1 antag
CC(C)CN1C(=O)COC[C@@H]1[C@H](O)c1ccc(NC(=O)c2ccc(F)cc2)cc1,-17%[70.6 µM]
COc1cccc(C(=O)N2CCC(C3CCN(S(C)(=O)=O)CC3)C2)c1 (stereo unspecified),6%

The list goes on:
structure,NPR1 antag
CC(C)c1nnc2ccc(N3CCCC3)nn12,-4%
COc1ccc(S(=O)(=O)N2[C@@H]3CC[C@H]2CC(NC(=O)c2ccncc2)C3)cc1OC (stereo partly specified),-2%
COc1cccc(CN2C[C@@H](F)[C@@H](OCc3nc4ccccc4o3)C2)c1,-1%[70.6 µM]
CCOC(=O)C1=CN(CC(=O)Nc2ccc(F)cc2C)S(=O)(=O)N=C1C,5%
Cc1nn(-c2ccccc2)c(C)c1CC(=O)NC1CCCc2c1[nH]c1ccccc21 (stereo unspecified),-13%
CCn1ccnc1C1CCN(C(=O)CC2COCCN2)CC1 (stereo unspecified),4%
COCCOCc1nc(C2CCCN2C(=O)Nc2ccccc2F)no1 (stereo unspecified),6%
Cc1ccc(Nc2ncncc2-c2nc(-c3ccccc3)no2)c(F)c1,3%
CCn1ncc(N2CCCC(CC(=O)NCc3cccnc3)C2)cc1=O (stereo unspecified),10%
O=C(c1ccccc1)N1CCC(c2nn(-c3ccc(F)cc3)c(=O)[nH]2)CC1,-17%
COc1ccnc(-c2nnc3ccc(Nc4cc(OC)c(OC)c(OC)c4)nn23)c1,2%[70.6 µM]
CC(=O)N1CCC(C2CCN(S(=O)(=O)c3cccnc3)C2)CC1 (stereo unspecified),3%
O=C(CCc1ncc(-c2ccccc2)o1)Nc1ccc2c(c1)C(=O)N1CCC[C@H]1C(=O)N2,2%
CC(C)NC(=O)c1cc2n(n1)CC(c1ccc3c(c1)OCO3)OC2 (stereo unspecified),0%
COc1cc(CN2CCc3nc(N4CCN(C)CC4)[nH]c(=O)c3CC2)cc(OC)c1OC,4%
COc1cccc(CN(C)Cc2ccc(C)o2)c1O,-2%
O=C1NC2(CN(Cc3cccc4ccccc34)C2)Oc2ccccc21,3%[70.6 µM]
COCCNC(=O)[C@H]1C[C@H](Oc2ccccc2)CN1C(=O)c1ccccc1,-8%
CN(C)C[C@@H]1CN(S(C)(=O)=O)C[C@H]1NC(=O)CC1=CCCCC1,2%
CNC(=O)[C@@H](c1ccccc1F)N1CCC[C@H]1C(=O)N(C)Cc1ccccc1,-7%[70.6 µM]
CCC(CC)NC(=O)C1Cn2cccc2C(=O)N1C (stereo unspecified),-1%
O=C1CCN(Cc2ccccc2)CCOCCN1,-13%
O=C(COc1ccccc1)N1CCC2(CC1)CC(N(Cc1ccccc1)C1CC1)CCO2 (stereo unspecified),12%
